Assay outcomes (PubChem BioAssay)
2A StopGo: FMDV 2A StopGo reporter, luciferase signal. human cells with a luciferase reporter of 2A StopGo recoding; control for the full effect not named in the record. AID 1159524. actives 1.2% (n = 410,000). Potency, µM (top dose mostly 57.9 µM), for inactives: at the top dose signal change, negative = less light; active = well fitted falling curve with a large enough effect; inconclusive = small, poorly fitted or top-dose-only effect; inactive = no such curve, though single readings can be large or run the other way; tested in HEK293T cells; also: nearly all actives have a fitted effect of over 45% in size; luciferase light after 4 h
RE007 growth inh: less growth of the S. pombe RE007 Vpr strain; actives 0.21% (n = 360,000); S. pombe RE007 Vpr strain, BacTiter-Glo ATP luminescence, 24 h; control for the full effect not named in the record; Potency, µM (top dose mostly 92.2 µM), for inactives: at the top dose activity change, negative = less growth; active = well fitted falling curve with a large enough effect; inconclusive = small, poorly fitted or top-dose-only effect; inactive = no such curve, though single readings can be large or run the other way;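 also: nearly all actives have a fitted effect of over 50% in size; the assay follows cell death caused by Vpr and the record does not say whether a fall means rescue or toxicity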
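Fission yeast RE007 carrying one integrated HIV-1 vpr copy, seeded at OD 0.01 in PMG+AL medium with 23 nL pinned compound. Grown 24 h at 30 degrees; viability read by BacTiter-Glo luminescence after 5 min.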
The depositor's hits bear a star; ? = inconclusive; [ ] = dose if it differs, or a comment. % is scaled to controls: 0 for no effect and ±100 for the full control effect; potency is read from the fitted curve at half-maximal effect. A portion of the library; rates above refer to the full screens.

Values run as follows: 2A StopGo	RE007 growth inh
CC1=C(C(=O)N(C)C)CC(CC(=O)NC2CCCC2)C(=O)N1Cc1ccc(F)cc1 (configuration not stated)
    -20%	-18%
O=C(Nc1cccc(C(F)(F)F)c1)C1Cc2c(-c3ccccc3Oc3ccccc3)ccnc2O1 (configuration not stated)
    ?	-7%[18.4 µM]
Cn1nc(NC(=O)C(F)(F)F)c2ncc(-c3ccccc3)nc21
    0%	1%
CS(=O)(=O)c1ccc(CNC(=O)C2(C(F)(F)F)C/C(=C/CCO)CCCO2)cc1 (configuration not stated)
    -13%	3%
CC(C)[C@@H](NC(=O)OC(C)(C)C)c1cc(C(=O)c2c(-c3ccccc3)[nH]c3ccccc23)c(N)s1
    -21%	-10%
O=[N+]([O-])c1ccc(C=CC=Cc2ccccc2)cc1
    62%[activator]	-7%
CCn1c2ccccc2c2cc(NC(=O)N3CCCCC3)ccc21
    61%[activator]	8%
CC(=O)N1c2ccccc2Sc2ccc3ccccc3c21
    -15%	-14%
O=C(CN1C(=O)NC2(CCc3ccccc32)C1=O)NC1CCCCC1 (configuration not stated)
    -5%	-12%
CC(C)(C)OC(=O)N(CCc1ccccc1)Cc1ccc(OCc2cccc(NC(=O)c3ccccc3)c2)cc1
    ?	-1%
Cc1cc2nc(-c3nnnn3-c3c(C)cccc3C)c(=O)[nH]c2cc1C
    -28%	-8%
COc1ccc(NC(=O)c2cc(-c3ccc(C)o3)nc3ccccc23)c(OC)c1
    15%	-8%
CC(=O)N[C@@H](CC(=O)N[C@H](CCC(=O)O)C(=O)O)C(=O)O
    -19%	-2%
CCN1C[C@]2(C)CC[C@H](O)[C@]34C1[C@H](C[C@H]23)[C@@]1(O)C[C@H](OC)[C@H]2C[C@@H]4[C@@H]1C2O (some centres not stated)
    -22%	-10%[18.4 µM]
CC(C)C[C@@H](CN1CCCC1CN1C(=S)NC[C@@H]1Cc1ccccc1)N1C[C@H](Cc2ccccc2)N(CC2CCCCC2)C1=S (some centres not stated)
    -16%	-23%
C[C@@H]1CCCCO[C@@H](CN(C)S(=O)(=O)c2cccs2)[C@@H](C)CN([C@H](C)CO)C(=O)c2cc(NS(=O)(=O)c3ccccc3)ccc2O1
    ?	21%
O=C(NCCc1ccccc1)c1ccc(S(=O)(=O)N2CCCCC2)cc1
    6%	7%
Cc1cc(CNC(=O)C2(C(F)(F)F)C/C(=C\Cc3ccccc3)CCCO2)nn1C (configuration not stated)
    -9%	-5%
Brc1ccc(-c2noc3c2-c2nc(C4CCCCC4)sc2CC3)cc1
    3%	-2%
CC(C)(C)S(=O)N1Cc2cc(C(=O)N3CCc4ccccc4C3)nc(-c3cccc(-c4cccnc4)c3)c2[C@@H]1CCO (some centres not stated)
    -29%	-25%
CC1(C)CN=C(NCc2ccccc2)S1
    16%	-5%
COc1ccc(S(=O)(=O)N2CCCCCC2)cc1NC(=O)CCNC(=O)c1ccccc1Cl
    -10%	18%
COc1ccc(-c2ccc(C(=O)N3CCN(C)CC3)c3occc23)c(C)c1
    ?	-19%[18.4 µM]
CCCC(=O)N1CCC1(C)C(=O)Nc1cc(C)ccc1C (configuration not stated)
    -13%	9%
COc1ccc(NC(=O)c2cc(C3CCCCN3S(=O)(=O)c3ccc(C#N)cc3)on2)c(C)c1 (configuration not stated)
    ?	0%
CN(C)C(CNC(=O)c1cccc(S(=O)(=O)N2CCc3ccccc3C2)c1)c1ccccc1 (configuration not stated)
    2%	0%
COC(=O)[C@]12CCCCC=C1N(Cc1ccc(Cl)cc1Cl)C(=O)[C@H](CC(=O)NCc1ccc(C)o1)C2
    -15%	11%
COc1ccc(N2CCN(C(=O)/C=C/[C@H]3O[C@@H](n4ccc(=O)[nH]c4=O)[C@H](O)[C@@H]3O)CC2)cc1
    -17%	1%
O=C(Nc1cccc(F)c1)Nc1nnc([C@@H]2O[C@H](CO)[C@@H](O)[C@H]2O)s1
    -10%	-1%[18.4 µM]
CC(C)=CCC[C@H](C)C[C@@H]1Cc2[nH][nH]c(=O)c2[C@H](c2ccc(Cl)cc2)O1
    -17%	7%

6 neighbouring compounds out of the list so far, for reference:
Values run as follows: 2A StopGo	RE007 growth inh
CS(=O)(=O)c1ccc(CNC(=O)C2(C(F)(F)F)C/C(=C/CCO)CCCO2)cc1 (configuration not stated)
    -13%	3%
CC(C)[C@@H](NC(=O)OC(C)(C)C)c1cc(C(=O)c2c(-c3ccccc3)[nH]c3ccccc23)c(N)s1
    -21%	-10%
O=[N+]([O-])c1ccc(C=CC=Cc2ccccc2)cc1
    62%[activator]	-7%
CCn1c2ccccc2c2cc(NC(=O)N3CCCCC3)ccc21
    61%[activator]	8%
CC(=O)N1c2ccccc2Sc2ccc3ccccc3c21
    -15%	-14%
O=C(CN1C(=O)NC2(CCc3ccccc32)C1=O)NC1CCCCC1 (configuration not stated)
    -5%	-12%

Additional structures.
Values run as follows: 2A StopGo	RE007 growth inh
COc1cccc(-c2nc3nc(C)cc(C)n3c2NC2CCCCC2)c1
    -5%	-27%
O=S1(=O)CC(N2CCN(Cc3ccccc3F)CC2)CN1Cc1cn(Cc2cccc(Cl)c2)nn1 (configuration not stated)
    ?	-12%
O=C(NCc1ccccc1)c1ccc(S(=O)(=O)N2CCCCCC2)cc1
    -8%	12%
O=C(Nc1cccc(F)c1)c1ccc(-c2cccnc2)c2ccoc12
    -57%	-21%
O=C(Nc1ccccc1)[C@@H]1CC=C[C@@H]2CCN(Cc3ccccc3)C(=O)[C@@H]21
    -4%	2%
CC1(Cc2cccc(F)c2)C(=O)Nc2ccc(S(=O)(=O)NC3CCCCC3)cc21 (configuration not stated)
    23%	1%
Cc1ccc(S(=O)(=O)N=N/C=C2\C=CC=CN2O)cc1
    -10%	17%
COc1ccc(Br)cc1C(=O)Nc1ccccc1N1CCCC1
    5%	-9%
O=C(NCc1ccccc1)C1=C[C@@H](C2CCCCC2)C[C@@H](OCCCCO)O1
    -1%	5%
NS(=O)(=O)c1ccc(CCNc2nn3c(-c4ccc(F)c(Cl)c4)cnc3s2)cc1
    ?	3%
Cc1ccccc1CNC(=O)c1ccc2nc([C@@H]3O[C@H](CO)[C@H](O)[C@H](O)[C@H]3O)[nH]c2c1
    -14%	-7%
CC(C)C#Cc1ccc2c(c1)O[C@@H](CN(C)C(=O)c1cnccn1)[C@@H](C)CN([C@@H](C)CO)S2(=O)=O
    12%	0%
C=C[C@]1(C)C=C2C(=O)C[C@H]3C(C)(C)CCC[C@]3(C(=O)O)[C@@]2(O)CC1
    -9%	3%
OC(c1ccc(Cl)c(F)c1)c1ncc(-c2ccc(Oc3ccccc3)cc2)[nH]1 (configuration not stated)
    -12%	29%
CN1C=CC(=O)[C@@H](OC(=O)Nc2ccc(Br)cc2)[C@H]1c1ccccc1Br
    -13%	-12%
CC1N=C(SCC(=O)c2ccc(F)cc2)N2C(C)N=C(SCC(=O)c3ccc(F)cc3)N12 (configuration not stated)
    -28%	7%
CC(=O)Nc1cccc(C(=O)OCC(=O)NC(=O)NC2CCCC2)c1
    -20%	19%
CN(C(=O)C1CC1)c1ccccc1
    -12%	22%
C[C@@H]1CN([C@H](C)CO)C(=O)CCCn2nncc2CO[C@H]1CN(C)S(=O)(=O)c1ccc(C#N)cc1
    -20%	6%
C[C@H]1COC(=O)[C@H](Cc2ccc(F)cc2)CC/C=C/C[C@@H](CC(=O)N(CCO)Cc2ccccc2)C(=O)N1
    ?	0%
Cc1ccc(C2C=CC(C#N)=CN2Cc2ccccc2)cc1 (configuration not stated)
    -28%	-11%
COc1ccc(CCN2C(=O)COc3ccccc3C2C(=O)Nc2ccc3c(c2)OCCO3)cc1OC (configuration not stated)
    -8%	-24%
CCCCn1nnnc1C(c1ccccc1)N1CCN(Cc2c(F)cccc2Cl)CC1 (configuration not stated)
    -16%	-12%
C[C@@H]1CCCCO[C@@H](CN(C)S(=O)(=O)c2ccc(F)cc2)[C@@H](C)CN([C@H](C)CO)C(=O)c2cc(NC(=O)c3ccccc3)ccc2O1
    -27%	-12%
CCN(CC)CCNc1c(C)cc(CO)c(Cl)c1C
    ?	-6%
CN(C(=O)c1cccc(NC(=O)Cc2ccc(NC(=O)C3CCCN(C(=O)C4CCCC4)C3)cc2)c1)C1CCCC1 (configuration not stated)
    ?	-18%
COC(=O)[C@]12CCCCC=C1N(Cc1ccc(Cl)cc1Cl)C(=O)[C@H](CC(=O)N1CCOCC1)C2
    -18%	17%
O=C(NCc1ccc(F)cc1)c1cc(C2CCCN(C(=O)C3CCCCC3)C2)on1 (configuration not stated)
    -7%	9%
Cc1ccc(Cn2cc(CN3CC(N4CCN(CCO)CC4)CS3(=O)=O)nn2)cc1 (configuration not stated)
    -21%	9%
C[C@@H]1CN([C@@H](C)CO)S(=O)(=O)c2ccc(-c3ccccc3)cc2O[C@@H]1CN(C)Cc1ccccc1C(=O)O
    55%[activator]	4%
COc1ccc(CCNC(=O)c2ccc(CS(=O)(=O)Cc3ccc(C)cc3)o2)cc1OC
    -11%	3%
COc1ccc(OC(=O)N(C)C[C@@H]2OCc3cnnn3CCCC(=O)N([C@H](C)CO)C[C@H]2C)cc1
    2%	-2%
O=C(C[C@H]1C=C[C@@H](NC(=O)Cc2cccnc2)[C@@H](CO)O1)NCc1ccc2c(c1)OCO2
    -10%	-10%
COCc1cn(-c2nc3ccccc3s2)nn1
    36%[activator]	-11%
COc1cccc2c3c(c(=O)[nH]c12)CC(C)(C)O3
    24%	13%
CNc1ccc(-c2cccc(C(C)=O)c2)cn1
    34%[activator]	-14%
CC12CCC3c4ccccc4CCC3(CO1)C2 (configuration not stated)
    6%	-11%
CCOC(=O)C1=CN(C)CCC1=O
    -20%	5%
O=C(O)C1=CCC(c2ccc(Cl)c(Cl)c2)N(S(=O)(=O)c2ccc(F)cc2)C1c1cccc(F)c1 (configuration not stated)
    -11%	-14%
CN1CCCC1(C)C(=O)NCc1ccc(F)cc1Cl (configuration not stated)
    -14%	1%[18.4 µM]
CC(C)OC(=O)N(C)C[C@@H]1OCc2cnnn2CCCC(=O)N([C@@H](C)CO)C[C@H]1C
    -15%	3%
CCC(C(=O)NC1CCCC1)n1c(C2CCCC2)nc2ccccc21 (configuration not stated)
    -4%	-1%
Cc1cc(C)c2c(=O)n3c(nc2c1)C(Cc1ccccc1)NC(=O)c1cc2ccccc2cc1-3 (configuration not stated)
    ?	-2%
O=C(O)c1ccccc1C(=O)OCC1CCC(=NO)CC1 (configuration not stated)
    -21%	-12%
C[N+](C)(C)CCN1CCc2ccccc21
    -29%	-15%
CC1(C(=O)NCc2ccccc2)CN(S(C)(=O)=O)CC(=O)N1CCc1ccc(O)cc1 (configuration not stated)
    -1%	0%
C[C@H](c1ccccc1)N1C[C@@H](COCc2ccccc2)Oc2cc(N3CC[C@H](O)C3)ccc2S1(=O)=O
    9%	5%
COc1ccc(/C=C/c2cc(O)cc(OC3OC(CO)C(O)C(O)C3O)c2)cc1 (configuration not stated)
    29%	-8%
C[C@@H]1CCCCO[C@@H](CN(C)C(=O)c2ccccc2)[C@@H](C)CN([C@H](C)CO)C(=O)c2cc(N(C)C)ccc2O1
    -27%	-12%
CC1(C(=O)NS(=O)(=O)c2cccs2)CCN1C(=O)Cc1ccc(-c2ccccc2)cc1 (configuration not stated)
    17%	3%
Cc1ccc(S(=O)(=O)N(C)C[C@@H]2Oc3ccc(NS(=O)(=O)c4ccccc4)cc3CC(=O)N([C@@H](C)CO)C[C@H]2C)cc1
    -6%	7%
CCN(CC)CCNc1cccc2sc3ccccc3c(=O)c12
    ?	-11%
CCOc1ccc(/C=N/NC(=O)c2ccc3nc[nH]c3c2)cc1OC
    -17%	3%
COc1ccc(Cc2c(-c3ccccc3)nc3c(C)cc(Br)cn23)c(C)c1
    3%	-2%
COC(=O)c1ccc2nc(-c3cccc(Br)c3)c(Cc3ccccc3C(F)(F)F)n2c1
    -24%	0%
CCCS(=O)(=O)c1nc(S(=O)(=O)c2ccc(C)cc2)c(N2CCCCC2)s1
    17%	-6%
Cc1c(C(=O)NCc2ccc(F)cc2)sc(=O)n1Cc1ccc(C(=O)c2ccccc2)cc1
    -28%	-4%[18.4 µM]
CN(C(=O)c1cccc(NC(=O)Cc2cccc(NC(=O)C3CCCN(C(=O)C4CCC4)C3)c2)c1)C1CC1 (configuration not stated)
    -8%	5%
C[C@@H]1CN([C@@H](C)CO)C(=O)c2cc(Br)cnc2O[C@H]1CN(C)C(=O)Cc1ccccn1
    -14%	-16%
COc1cccc(-c2nnn(CC(=O)N(C3CCCCC3)C3CCS(=O)(=O)C3)n2)c1 (configuration not stated)
    -12%	-2%

(cont.)
Values run as follows: 2A StopGo	RE007 growth inh
CCOC(=O)C1(C)CCN1C(=O)c1cccc(Cl)c1 (configuration not stated)
    -16%	46%
CCc1nc2ccc(C(=O)N(C)Cc3ccccc3)cn2c1N(C)CCCc1ccccc1
    3%	?
COCCN(C(=O)COC(=O)c1ccc2c(c1)OCO2)c1c(N)n(Cc2ccccc2)c(=O)[nH]c1=O
    -22%	-2%
COc1ccc(C[C@](C)(N)C(=O)O)cc1OC
    -13%	-2%[18.4 µM]
Cc1ccc(CNC(=O)C2CCC(=O)N(Cc3cccc(F)c3)C2)s1 (configuration not stated)
    -18%	-7%
